Screening data: PubChem, several laboratories
HIV Env fusion – blocks HIV Env-driven cell-cell fusion; HeLa-JRFL Env/CEM21 cell fusion, luciferase; inhibition, % at 12.3 µM; actives 1.1% (n = 360,000); AID 651610;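 active means mean replicate inhibition score of at least 50 and every replicate individually at or above 50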;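 further: 0% = plate neutral controls and 100% = maraviroc near 300 nM; one replicate is shown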
CSC inhib – blocks cancer stem cells | cancer stem cell-like cells viability, luminescence | inhibition, % at 7.5 µM | actives 1.1% (n = 300,000);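 active means mean at 75% or more and at least half the replicates too; tested in HMLE shEcad cells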;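 further: 0% = median of negative and 100% = median of positive control wells; the first replicate is given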
PABP FP inh – blocks human PABP binding to poly(A) RNA | P11940 | inhibition, % at 35 µM | actives 1% (n = 290,000) | fluorescence polarization;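 active means 50% or more with normal probe brightness, or confirmed in later tests; about a fifth of its hits are not listed in these tables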;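 further: calls also rest on retests at 20 µM and on dose response follow-up; controls were probe without protein and protein plus probe with vehicle; some compounds called inactive have numbers as strong as hits; many hits fall short of the cut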
Target sequence (P11940 whole entry, looked up): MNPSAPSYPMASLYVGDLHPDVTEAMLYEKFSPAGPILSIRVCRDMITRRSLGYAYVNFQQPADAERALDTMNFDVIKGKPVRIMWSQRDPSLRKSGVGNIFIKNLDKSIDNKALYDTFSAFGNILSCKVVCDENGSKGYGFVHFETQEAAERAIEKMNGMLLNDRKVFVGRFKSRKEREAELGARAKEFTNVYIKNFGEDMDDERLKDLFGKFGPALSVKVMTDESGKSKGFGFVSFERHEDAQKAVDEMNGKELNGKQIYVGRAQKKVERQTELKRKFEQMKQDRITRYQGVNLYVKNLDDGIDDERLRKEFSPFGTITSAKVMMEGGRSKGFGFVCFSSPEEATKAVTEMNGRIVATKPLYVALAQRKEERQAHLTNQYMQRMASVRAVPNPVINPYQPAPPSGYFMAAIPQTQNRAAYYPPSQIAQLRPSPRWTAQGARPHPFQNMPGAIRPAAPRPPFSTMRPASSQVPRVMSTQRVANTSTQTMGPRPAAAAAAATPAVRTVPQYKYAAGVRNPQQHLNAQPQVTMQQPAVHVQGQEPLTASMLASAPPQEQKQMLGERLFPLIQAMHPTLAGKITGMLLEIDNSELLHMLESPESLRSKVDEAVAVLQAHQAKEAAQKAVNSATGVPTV
Yeast UUG start – modulators of start codon recognition fidelity in yeast; actives 0.13% (n = 350,000); AID 602363; S. cerevisiae UUG-firefly luciferase reporter, luminescence/redox ratio; activity score, % at 18.7 µM;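 active means replicate mean at a twofold rise or more, about +100% in these data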;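 further: firefly luciferase made from a UUG start codon reports start codon fidelity; reporter light over untreated wells divided by growth signal over untreated wells; some hits fall short of that in this replicate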
MT1-MMP act inh – blocks activation of human MT1-MMP; P50281; HT1080 RFP-PRO-GFP cells, GFP/RFP ratio fluorescence, overnight; percent of plate control window, DMSO zero; GFP/RFP ratio change, % at 20 µM; actives 0.061% (n = 360,000); AID 651647;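 active means GFP/RFP ratio change of at least 30% with cell ATP level not reduced by more than half and red fluorescence within 50% of control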; further: strong numbers were not always called active
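Assay system: HT1080 cells carrying an RFP-PRO-GFP reporter | Dosing: Single dose of 20 µM compound, 1% DMSO final | Incubation: Cells overnight before dosing, compound overnight, 37 °C, 5% CO2 | Evaluation: GFP/RFP fluorescence ratio | Control set: DMSO and RFP-L50D-GFP cell wells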
eIF4H FP inh – inhibitors of RNA binding by human eIF4H; Q15056; eIF4H fluorescence polarization binding assay; inhibition, % at 35 µM; actives 0.94% (n = 290,000);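 active means 50% or more with normal probe brightness, or confirmed in later tests; about a fifth of its hits are not listed in these tables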;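 further: calls also rest on retests at 20 µM and on dose response follow-up; 0% = protein and probe with vehicle and 100% = probe without protein; strong numbers were not always called active; many hits fall short of the cut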
Rce1 inh – yeast Ras-converting enzyme inhibition. Q03530. yeast membranes, quenched prenylated peptide cleavage fluorescence. calls only. actives 0.27% (n = 290,000);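 active means fall in fluorescence gain of 50% or more versus controls, with final raw signal at or below 3038400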;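 further: plate controls were neutral control wells for no effect and wells lacking membranes for full effect; tested at 10 µM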
MT1-MMP act inh RFP – recorded beside MT1-MMP act inh, whose call it bears; RFP signal change, %; measured here: RFP expression control read;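 0 = vehicle wells; hits needed this value within 50% of zero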
Active calls of the source: *; i = inactive; / = no result given. This is a subset (hit frequency here may not be typical).

SMILES | HIV Env fusion | CSC inhib | PABP FP inh | Yeast UUG start | MT1-MMP act inh | MT1-MMP act inh RFP | eIF4H FP inh | Rce1 inh
NS(=O)(=O)c1ccc(NC(=S)N2CCC(O)CC2)cc1 | 2 | 6 | 5 | / | 0 | 1 | -5 | i
O=C(Nc1cccc(C(F)(F)F)c1)C1Cc2c(-c3ccccc3)ccnc2O1 (stereo not given) | -9 | / | / | -7 | 7 | -13 | / | /
CCC(=O)Nc1nc2ccccc2n1CCN(CC)CC | -1 | -19 | -2 | -10 | -2 | 4 | -6 | i
Cc1ccc(S(=O)(=O)N2CCOCC2)cc1NC(=O)COC(=O)/C=C/c1ccco1 | / | -15 | / | -17 | 8 | 5 | / | /
Oc1ccc(Cl)cc1-c1cc(-c2ccccc2)n[nH]1 | -21 | 50 | -11 | -4 | 4 | 5 | -6 | i

3 entries from above, sorted by length of the SMILES, ascending:
SMILES | HIV Env fusion | CSC inhib | PABP FP inh | Yeast UUG start | MT1-MMP act inh | MT1-MMP act inh RFP | eIF4H FP inh | Rce1 inh
Oc1ccc(Cl)cc1-c1cc(-c2ccccc2)n[nH]1 | -21 | 50 | -11 | -4 | 4 | 5 | -6 | i
NS(=O)(=O)c1ccc(NC(=S)N2CCC(O)CC2)cc1 | 2 | 6 | 5 | / | 0 | 1 | -5 | i
O=C(Nc1cccc(C(F)(F)F)c1)C1Cc2c(-c3ccccc3)ccnc2O1 (stereo not given) | -9 | / | / | -7 | 7 | -13 | / | /

Three entries out of the list above, arranged by the value under HIV Env fusion, lowest first:
compound	HIV Env fusion	Yeast UUG start	MT1-MMP act inh	MT1-MMP act inh RFP	Rce1 inh
O=C(Nc1cccc(C(F)(F)F)c1)C1Cc2c(-c3ccccc3)ccnc2O1 (stereo not given)	-9	-7	7	-13	/
CCC(=O)Nc1nc2ccccc2n1CCN(CC)CC	-1	-10	-2	4	i
NS(=O)(=O)c1ccc(NC(=S)N2CCC(O)CC2)cc1	2	/	0	1	i

As entered above.
MT1-MMP act inh, Cc1ccc(S(=O)(=O)N2CCOCC2)cc1NC(=O)COC(=O)/C=C/c1ccco1 : 8
CSC inhib, CCC(=O)Nc1nc2ccccc2n1CCN(CC)CC : -19

2 records drawn at random from those above:
SMILES | HIV Env fusion | CSC inhib | PABP FP inh | Yeast UUG start | MT1-MMP act inh | MT1-MMP act inh RFP | eIF4H FP inh | Rce1 inh
Oc1ccc(Cl)cc1-c1cc(-c2ccccc2)n[nH]1 | -21 | 50 | -11 | -4 | 4 | 5 | -6 | i
O=C(Nc1cccc(C(F)(F)F)c1)C1Cc2c(-c3ccccc3)ccnc2O1 (stereo not given) | -9 | / | / | -7 | 7 | -13 | / | /
